# Screens deposited in PubChem by several laboratories.
# RanGTP-Imp inh: disruptors of Ran-importin-beta complex formation – biochemical, FRET, CFP-Ran, YFP-importin-beta, homogeneous, primary screen. inhibition, % (no concentration beside the values). hit rate 1.1% among 300,000. cell-free CFP-Ran/YFP-importin-beta FRET ratio;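 active means most replicates above 15%; inconclusive means exactly half above 15%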;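 further: 0% = DMSO wells and 100% = Ran loaded with GDP instead of GTP; wells of about 40 µL received 100 nL stock; the first replicate is given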
# Beta apoptosis: beta cell apoptosis inhibition; INS-1E cytokine-induced death, ATP luminescence, 48 h; percent of positive-control rescue, neutral wells zero; protection from apoptosis, % (concentration not given with the values); hit rate 0.8% among 300,000;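 active means all replicates at 75% or more, or half of them and the mean; inconclusive means half reach 75% but not the mean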;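 further: 0% = cytokine-treated negative control wells and 100% = positive control rescue; higher means more ATP so stronger rescue from cytokine killing; wells of about 40 µL received 100 nL stock; the first replicate is given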
# T cruzi repl: T. cruzi replication inhibition; T. cruzi beta-gal in NIH3T3, luminescence, 90 h; inhibition, % (concentration not given with the values); hit rate 1.4% among 300,000;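 active means mean inhibition across valid replicates above about 55%, limit read from the data; inconclusive means mean below that limit but half or more replicates reach it; inactive means mean below it, under half of replicates reach it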;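 further: signal also drops with host cell toxicity which is not excluded here; 0% = plate median of DMSO wells and 100% = zero luminescence signal; higher percent means less beta-gal luminescence so fewer parasites; stock transfer was 50 nL into about 50 µL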
# UCH37 DUB inh: blocks the human deubiquitinase UCH37. Q9Y5K5. purified proteasome/UCH37, Ub-AMC cleavage fluorescence. inhibition, % (test concentration not listed). hit rate 0.33% among 330,000. AID 588478;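 active means mean of two replicates above 20%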;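 further: 0% = compound-free wells with enzyme and 100% = wells lacking proteasome; stock transfer was 100 nL into about 20 µL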
#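 Assay system: Proteasome-bound UCH37. Buffer or medium: pH 7.4 Tris-HCl (50 mM) with ovalbumin, ATP-MgCl2, DTT. Incubation: 30 min preincubation with enzyme, 25 min cleavage at room temperature. Measured by: fluorescence, ex 355 nm, em 460 nm. Read-out basis: percent inhibition. Control set: wells without proteasome as full block, compound-free enzyme plus substrate as uninhibited.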
# LANA-H2B inh: blocks KSHV LANA binding to histone H2A/H2B; Q9QR71; cell-free LANA-H2A/H2B peptide, fluorescence polarization; inhibition, % (test concentration not listed); AID 2629; hit rate 0.6% among 320,000; in the data active means inhibition mostly above about 10%, no sharp cut-off; inactive means mostly below about 6.7%;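 further: stock transfer was 7.5 nL into about 10 µL; 0% = median of vehicle wells and 100% = median of positive control wells; one replicate is shown; the record names a cut of 25% in any replicate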
# Target sequence (Q9QR71 whole entry, looked up): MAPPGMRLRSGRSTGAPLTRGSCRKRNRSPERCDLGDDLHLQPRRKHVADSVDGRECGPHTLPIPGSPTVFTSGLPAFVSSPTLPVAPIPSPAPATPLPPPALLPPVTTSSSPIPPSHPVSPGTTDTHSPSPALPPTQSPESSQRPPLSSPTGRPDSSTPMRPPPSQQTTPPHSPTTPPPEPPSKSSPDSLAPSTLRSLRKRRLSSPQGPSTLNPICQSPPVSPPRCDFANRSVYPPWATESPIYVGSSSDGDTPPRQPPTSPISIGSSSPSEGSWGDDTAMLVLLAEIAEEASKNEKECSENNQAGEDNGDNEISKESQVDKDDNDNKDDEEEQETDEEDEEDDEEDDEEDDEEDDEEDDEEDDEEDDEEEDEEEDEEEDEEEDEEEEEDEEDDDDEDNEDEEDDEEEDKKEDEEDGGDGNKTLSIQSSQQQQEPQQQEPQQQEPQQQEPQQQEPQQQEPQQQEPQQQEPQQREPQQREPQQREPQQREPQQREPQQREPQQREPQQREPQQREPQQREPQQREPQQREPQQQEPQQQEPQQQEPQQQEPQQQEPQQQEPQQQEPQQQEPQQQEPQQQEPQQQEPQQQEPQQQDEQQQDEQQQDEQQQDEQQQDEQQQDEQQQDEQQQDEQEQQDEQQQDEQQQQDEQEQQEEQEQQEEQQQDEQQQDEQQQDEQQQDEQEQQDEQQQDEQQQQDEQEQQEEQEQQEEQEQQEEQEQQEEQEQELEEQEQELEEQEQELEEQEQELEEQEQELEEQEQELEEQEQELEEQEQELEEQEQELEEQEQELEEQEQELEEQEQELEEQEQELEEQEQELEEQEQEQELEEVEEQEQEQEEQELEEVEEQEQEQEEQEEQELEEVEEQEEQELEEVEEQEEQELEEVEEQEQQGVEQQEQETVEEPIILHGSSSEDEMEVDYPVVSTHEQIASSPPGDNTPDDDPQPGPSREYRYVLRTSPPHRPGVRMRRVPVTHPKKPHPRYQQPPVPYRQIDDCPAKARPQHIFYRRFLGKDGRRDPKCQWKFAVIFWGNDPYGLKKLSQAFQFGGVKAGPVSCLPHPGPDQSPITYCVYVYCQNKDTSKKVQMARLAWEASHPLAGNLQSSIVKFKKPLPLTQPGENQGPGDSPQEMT
# Calb FLC: affects C. albicans growth with fluconazole | C. albicans CaCi-2 (fluconazole-resistant clinical isolate) + fluconazole, Alamar Blue growth, 48 h | hit rate 0.57% among 300,000 | AID 1979 | growth inhibition, % (test concentration not listed);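 active means most replicates above 75%; inconclusive means exactly half above 75%; inactive means most below 75%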;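 further: all wells also contain fluconazole at 8 µg/ml as a sub-toxic cotreatment; 0% = median of DMSO wells and 100% = median of geldanamycin control wells; wells of about 8 µL received 7.5 nL stock; the first replicate is given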
# A1 inh: inhibitors of the anti-apoptotic protein A1, read as caspase activation; MEF A1-2A-BIM cells, Caspase-Glo 3/7 luminescence, 3 h; percent of clofoctol response, vehicle zero; caspase activation, % (no concentration beside the values); hit rate 0.066% among 330,000;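 active means over half of replicate activation scores above 10%, or exactly half above 10 with the replicate mean above 10; inconclusive means replicate mean below 10 yet half the replicates above 10; inactive means over half of replicates below 10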;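 further: wells of about 30 µL received 50 nL stock; many hits fall short of the cut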
# B2AR ag: human beta-2 adrenergic receptor agonism by FAP; P07550; Am2.2-beta2AR cells, FAP receptor internalization, flow cytometry; reference of the scale not given here; response, % (no concentration beside the values); hit rate 0.43% among 340,000;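 active means response above a set limit, near 3 SD of response in nonfluorescent compounds, cut at about 42% in these data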;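 further: stock transfer was 100 nL into about 11 µL; a reference agonist was the positive control; negative values mostly stem from fluorescent compounds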
# * marks the source's active call; other numbers are inactive results; ? = inconclusive; . = no result given. Not a hit list. Share with any hit: about 4.3%.
SMILES,RanGTP-Imp inh,Beta apoptosis,T cruzi repl,UCH37 DUB inh,LANA-H2B inh,Calb FLC,A1 inh,B2AR ag
Cc1ccc(NC2CCCN(C(=O)Cc3nonc3C)C2)cc1C (configuration not stated),3.7,-3,11,3.3,0.6,0,0.1,7
Cc1ccc(C(=O)CSc2cnc3ccccc3n2)cc1C,3.3,-1,4,-1.8,-4.8,-8,-1.8,-6
COc1ccc(S(=O)(=O)NCCN2CCOCC2)cc1Br,2.2,-5,-20,1.4,5.1,12,-1.7,14
COc1cc(NC(=O)CN(C)CCOc2ccccc2)c(C)cc1[N+](=O)[O-],0.2,4,29,3.7,-3.5,8,0.2,-3
COc1cccc(NC(=O)CN2C(=O)C3(OCCCO3)c3ccccc32)c1,-1.9,4,2,3.9,-1.6,-4,0.9,-2
CC1Cc2cc(S(=O)(=O)NCCc3ccccc3)ccc2N1C(=O)C1CC1 (configuration not stated),-1.6,-4,1,3.1,-2.9,-4,0.5,-7
O=C(O)/C=C/C(=O)NNC(=O)c1ccccc1Br,-0.5,-1,-8,0.0,4.9,6,1.1,5
CC1(C)CC(=O)C(C=NCCN2CCN(C3CC(=O)N(c4ccc(F)cc4)C3=O)CC2)=C(O)C1 (configuration not stated),1.0,-1,-8,3.1,1.6,-14,1.4,-4
CC1=C(C)C(=O)OC(C(C)C2CCC3C4CC=C5CC(OC6OC(COC7OC(CO)C(O)C(O)C7O)C(O)C(O)C6O)CC(O)C5(C)C4CCC23C)C1 (configuration not stated),6.9,-1,-14,1.1,-6.1,3,-0.2,3
CCCn1nc(C(=O)Nc2ccc3c(c2)OCCO3)c2ccccc2c1=O,.,6,.,2.9,-1.1,.,-0.8,29

# Rewritten bar-delimited: entries from further up.
compound | RanGTP-Imp inh | Beta apoptosis | T cruzi repl | UCH37 DUB inh | LANA-H2B inh | Calb FLC | A1 inh | B2AR ag
COc1cc(NC(=O)CN(C)CCOc2ccccc2)c(C)cc1[N+](=O)[O-] | 0.2 | 4 | 29 | 3.7 | -3.5 | 8 | 0.2 | -3
COc1cccc(NC(=O)CN2C(=O)C3(OCCCO3)c3ccccc32)c1 | -1.9 | 4 | 2 | 3.9 | -1.6 | -4 | 0.9 | -2
CC1Cc2cc(S(=O)(=O)NCCc3ccccc3)ccc2N1C(=O)C1CC1 (configuration not stated) | -1.6 | -4 | 1 | 3.1 | -2.9 | -4 | 0.5 | -7
O=C(O)/C=C/C(=O)NNC(=O)c1ccccc1Br | -0.5 | -1 | -8 | 0.0 | 4.9 | 6 | 1.1 | 5

# Continuation.
SMILES,RanGTP-Imp inh,Beta apoptosis,T cruzi repl,UCH37 DUB inh,LANA-H2B inh,Calb FLC,A1 inh,B2AR ag
CCN(C(=O)CSc1nnc(C)n1-c1cccc(C)c1)C1CCS(=O)(=O)C1 (configuration not stated),.,3,.,0.2,2.9,.,-0.8,2
O=C(O)c1cc(S(=O)(=O)N2CCCc3ccccc32)ccc1Cl,8.3,-2,-4,6.1,0.4,4,0.5,-10
COCCNC(=O)c1ccc2c(c1)nc(C)n2-c1cc(OC)c(OC)c(OC)c1,1.7,-3,-12,1.6,-3.3,-7,-0.6,-1
COc1ccccc1NC(=O)CN(c1ccc(C23CC4CC(CC(C4)C2)C3)cc1)S(C)(=O)=O,-0.8,101*,54,1.2,-4.8,21,-0.3,-8
CC(C(=O)NCC1CCCCC1)N(C)Cc1ccc(Cl)cc1 (configuration not stated),-2.8,4,29,-0.4,0.6,-2,1.1,-3
CCN(CC)C1CCN(Cc2c(C(=O)N3CCCCCCC3)nc3ccc(Cl)cn23)C1 (configuration not stated),-4.6,-9,21,1.8,0.1,-4,0.0,-10
CC1CC(c2ccccc2)NS(=O)(=O)O1 (configuration not stated),0.6,-2,-2,.,-3.0,-2,0.0,-1
O=C1/C(=C/c2ccccc2[N+](=O)[O-])COc2ccccc21,4.4,-11,5,7.3,4.4,?,2.2,8
Cc1ccc(SCCC(=O)Nc2ccc(OCc3ccccc3)cc2)cc1,-0.9,-2,5,1.2,-2.2,2,-0.8,-2
O=C(NCc1ccncc1)Nc1ccccc1,-1.3,-2,-7,-0.9,-4.1,-2,1.0,2
Cc1ccc2nc(/C(C#N)=C\c3cc(O)ccc3[N+](=O)[O-])[nH]c2c1,5.0,.,4,2.7,3.5,30,1.4,-4
C/C=C\C=C\C(=O)Nc1cccc(C2=NOC3(C2)C[C@H](C(N)=O)N(C(=O)c2ccccc2C(=O)c2ccccc2)C3)c1 (some centres not stated),1.7,-2,23,-1.2,0.3,4,-2.1,.
C=CCn1c(=O)/c(=C\c2ccsc2)s/c1=C(/C#N)C(=O)NCCN1CCOCC1,0.7,3,13,.,5.6,?,0.0,-18
COc1cc(NC(=O)C(F)(F)F)cc(OC)c1,0.1,2,-33,6.1,4.4,17,0.0,5
CN(c1ccc(C(=O)NCc2cccs2)cc1)S(=O)(=O)c1ccccc1,1.6,6,5,1.0,2.6,9,0.0,-5
Clc1ccccc1N/N=C/c1ccc2c(c1)OCO2,2.5,-6,7,.,-2.5,-32,-7.0,-1
CCOC(=O)c1sc2nc(C)nc(NCCc3ccc(S(N)(=O)=O)cc3)c2c1C,-1.0,4,2,-33,5.1,-6,-0.5,6
O=C(Nc1ccc(-c2nnc(-c3ccccc3)o2)cc1)C1CCCO1 (configuration not stated),0.6,1,2,-36,3.7,21,-4.9,-3
COc1cc(OC)c(-n2cc(-c3ccc(Cl)cc3)[nH]c2=O)cc1Cl,-0.8,7,-18,.,4.8,-1,3.1,-6
Cc1ccc(S(=O)(=O)N2[C@@H](c3ccc(Br)cc3)C(C(=O)O)=CC[C@H]2c2cccc(Cl)c2)cc1,.,-4,.,3.0,-2.5,.,0.6,4

# Entries above that contain a COOH group (three):
SMILES,RanGTP-Imp inh,Beta apoptosis,T cruzi repl,UCH37 DUB inh,LANA-H2B inh,Calb FLC,A1 inh,B2AR ag
O=C(O)/C=C/C(=O)NNC(=O)c1ccccc1Br,-0.5,-1,-8,0.0,4.9,6,1.1,5
O=C(O)c1cc(S(=O)(=O)N2CCCc3ccccc32)ccc1Cl,8.3,-2,-4,6.1,0.4,4,0.5,-10
Cc1ccc(S(=O)(=O)N2[C@@H](c3ccc(Br)cc3)C(C(=O)O)=CC[C@H]2c2cccc(Cl)c2)cc1,.,-4,.,3.0,-2.5,.,0.6,4

# Continued.
SMILES,RanGTP-Imp inh,Beta apoptosis,T cruzi repl,UCH37 DUB inh,LANA-H2B inh,Calb FLC,A1 inh,B2AR ag
Cc1cc(C)n(-c2cccc(C(=O)O)c2)n1,-3.1,-4,-3,0.6,1.4,-2,0.5,0
COc1ccc2oc(C(=O)Nc3ccc(N4CCOCC4)cc3)c(C)c2c1,-1.1,2,8,-0.1,1.0,7,-0.7,10
CN1CCN(S(=O)(=O)CC2(C)C3CCC2(C)C(=O)C3Br)CC1 (configuration not stated),?,-2,19,0.5,-0.2,-1,0.2,-6
Cc1cc(=O)n(CCC(=O)O)c2ccccc12,-2.9,-7,-10,-2.2,0.4,2,-0.7,-4
Cc1ccccc1OCC(O)Cn1c(Br)nc2c1c(=O)n(C)c(=O)n2C (configuration not stated),3.5,4,-38,5.1,-7.7,2,-0.3,6
CCN(C(=O)COc1ncnc2ccccc12)C1CCCCC1,.,-2,.,0.9,2.9,.,0.1,-14
CCCC(=O)Nc1ccccc1NC(=O)c1ccc(OC)cc1,-0.5,3,-1,2.8,0.8,32,0.3,1
O=C(c1ccc(F)cc1)N1CCN(C2CCC(c3ccccc3)CC2)CC1 (configuration not stated),-0.4,5,49,2.6,-6.7,-19,0.2,-4
O=C(N/N=C/c1ccncc1)c1ccc(COc2cccc3cccnc23)cc1,-4.3,-5,-9,.,-4.5,-12,1.0,3
CCS(=O)(=O)NCc1csc(C)n1,6.7,-18,-4,0.9,7.5,6,0.0,12
CCC(C)(C)C1CCC2(CC1)NC(=O)N(CC(=O)NCCOc1ccccc1)C2=O (configuration not stated),.,-5,.,4.9,-3.3,.,-0.2,3
COC(=O)CCCC(=O)NCC1(N(C)Cc2ccccc2)Cc2ccccc2C1,5.8,-7,0,-2.2,0.1,-4,1.3,-8
C[N+]1(CCN2C(=O)C3CC=C(Cl)CC3C2=O)CCOCC1 (configuration not stated),3.0,0,-8,1.0,-15,-8,0.1,-6
CCN(Cc1ccc(OC)c(F)c1)C(=O)c1cc2ccccc2o1,-1.6,-7,29,1.5,-2.8,-3,-1.1,4
CCOc1ccc(-c2csc(NC(=O)c3cccc(N4C(=O)CCC4=O)c3)n2)cc1,6.0,-3,-11,-22,1.4,0,0.1,0
O=C(CSc1ccc(-c2ccccn2)nn1)c1ccc([N+](=O)[O-])cc1,4.8,-2,16,1.2,-1.7,7,-0.1,-11
COC(=O)CSc1nnnn1-c1cccc2ccccc12,4.2,3,-10,1.8,0.5,5,0.7,1
N#Cc1c(NC(=O)CCN2C(=O)c3ccccc3C2=O)oc(-c2ccccc2)c1-c1ccccc1,-2.9,3,1,0.7,-1.4,-1,0.4,9
Cc1c(C2C(C#N)=C(N)N(c3cccc([N+](=O)[O-])c3)C3=C2C(=O)CCC3)cnn1C (configuration not stated),0.2,-1,-10,6.2,-6.0,14,0.8,.
CC(=O)c1sc(N/N=C\c2ccccc2O)nc1C,38*,-3,12,.,-1.1,0,-9.0,-22
N#CC1=C(N)C(C#N)(C#N)C(c2ccncc2)C2CN(C(=O)OCc3ccccc3)CC=C12 (configuration not stated),14,-6,-15,-1.6,-0.6,4,-0.5,15
COc1ccccc1C(=O)Nc1ccc(Cc2ccncc2)cc1,8.6,7,2,0.2,3.0,-3,-1.0,-19
COc1ccc(Cl)cc1NC(=O)COC(=O)Cc1cccs1,2.4,1,-7,-1.9,-4.0,-4,0.8,-4
O=C(NNC1=C(C(=O)C(F)(F)F)CCC1)c1ccc(Br)cc1,1.1,6,-12,8.4,5.1,92*,-1.1,-2
O=C(CCc1ccccc1)NNC(=O)Nc1cccc(Cl)c1,-1.8,-7,-17,5.7,0.7,0,-0.2,12
CSCCC(=O)NC1CC(C)(C)Cc2c1cnn2-c1ccccc1C (configuration not stated),8.5,.,-14,4.7,0.9,1,0.3,2
COc1cccc(CNC(=O)CS(=O)(=O)Cc2nc(-c3ccc(C)cc3)oc2C)c1OC,-3.1,-10,-16,3.4,0.9,-2,.,-11
CCC(C)NS(=O)(=O)c1ccc(NS(=O)(=O)c2ccc(F)cc2)cc1 (configuration not stated),?,-5,-4,0.5,1.9,6,0.2,10
Cc1ccccc1C(=O)/C=C1/c2ccccc2CC(C)(C)N1C,-0.1,7,31,9.1,0.6,-27,2.4,-9
CC(C)N(C)C1CCN(C(=O)Nc2ccc(Cl)c(Cl)c2)CC1,?,-5,-20,7.8,3.2,50,-1.0,33
COc1cccc(-c2nc(CS(=O)(=O)CC(=O)NCCc3ccc(OC)c(OC)c3)c(C)o2)c1,0.7,0,21,3.7,-2.5,-13,0.8,2
CCn1nccc1C(=O)Nc1cccc(C)c1C,5.6,-6,7,3.2,-0.9,-5,0.0,-4
CCOc1ccc(CN2CCNC(=O)C2CC(=O)N(C)CC2CCOCC2)cc1 (configuration not stated),1.2,4,-2,.,-0.5,2,-0.1,8
